Source: PubChem BioAssay
VDR inhibitor = blocks the human vitamin D receptor; AID 504847; Potency, µM, for the others: max response, negative = inhibition, actives largely listed as inhibitors; 400,000 compounds, 0.93% hits; VDR-SRC2-3 peptide fluorescence polarization, 2 h; P11473; active means well fitted inhibition curve with a large enough effect; inconclusive means small, poorly fitted or top-dose-only effect, or another doubt; inactive means no such curve, though single readings can be large or run the other way; further: series mostly up to about 120 µM
Target sequence (P11473 whole entry, looked up): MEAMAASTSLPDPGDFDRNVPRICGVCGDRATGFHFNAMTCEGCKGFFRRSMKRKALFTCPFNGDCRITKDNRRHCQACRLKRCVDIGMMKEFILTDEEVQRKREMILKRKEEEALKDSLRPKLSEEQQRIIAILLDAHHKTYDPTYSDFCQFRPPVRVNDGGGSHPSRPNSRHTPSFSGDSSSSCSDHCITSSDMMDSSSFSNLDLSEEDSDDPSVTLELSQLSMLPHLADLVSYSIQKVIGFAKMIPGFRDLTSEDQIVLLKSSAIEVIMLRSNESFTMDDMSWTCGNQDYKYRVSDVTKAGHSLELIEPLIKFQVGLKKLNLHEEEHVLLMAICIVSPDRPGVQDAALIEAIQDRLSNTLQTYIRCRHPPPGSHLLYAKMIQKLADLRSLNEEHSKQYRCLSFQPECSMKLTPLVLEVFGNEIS
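Fluorescence polarization assay measuring small-molecule disruption of VDR binding to the coregulator peptide SRC2-3. Compounds were pin-transferred (23 nl) into the reagent mix and incubated 2 h at room temperature before reading.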
Starred values were filed as active, the others as inactive; ? = inconclusive. On the % scale 0 is the no-effect control and ±100 the full control effect; potency means the concentration at half of the fitted maximal effect.

VDR inhibitor,mol
-5%,CCOc1ccc(N=c2scc(-c3ccc(OC)cc3)n2CCO)cc1
8%,CCOC1CS(=O)(=O)CC1OCC (stereo not given)
-19%,Cc1nn(-c2ccccc2)c2nc(-c3ccncc3)cc(C(=O)NCc3ccco3)c12
-12%,COC(=O)c1ccc([C@H]2Nc3ccc(S(=O)(=O)Nc4cccc(C)c4)cc3[C@H]3C=CC[C@H]32)cc1
-5%,Cc1cc(OCC(=O)NCC2CCC(C(=O)O)CC2)c2c(C)c(C)c(=O)oc2c1 (stereo not given)
-10%,O=C(CN(CC1CCCO1)C(=O)CNS(=O)(=O)c1ccc(Cl)cc1)NCc1ccco1 (stereo not given)
10%,O=C(Nc1ccc2c(c1)C(=O)c1ccccc1-2)c1ccccc1
3%,NC1CCCCC1N=Cc1c(O)n(CCc2ccc(F)cc2)c(=O)[nH]c1=O (stereo not given)
-11%,COC(=O)CN1C(=O)N/C(=C/c2ccccc2OC)C1=O
-25%,Cc1cccc(NS(=O)(=O)c2ccc(C)c(C(=O)NCC(c3ccccc3)N(C)C)c2)c1 (stereo not given)
-20%,O=C(c1ccc2c(=O)n(Cc3ccccc3Cl)c(=S)[nH]c2c1)N1CCOCC1
8%,CCC(Sc1nc2cc3c(cc2c(=O)n1CCCC(=O)NCc1ccc(OC)cc1)OCO3)C(=O)NCCCOC (stereo not given)
-4%,CCCCCn1c(N)c(-c2nc3ccccc3s2)c2c([N+](=O)[O-])nn(C)c(=O)c21
?,O=C(CCC(=O)c1ccc(F)cc1)OCc1nnc(-c2ccc([N+](=O)[O-])cc2)o1
-6%,Nc1nc(CSc2n[nH]c(-c3ccccc3)n2)nc(Nc2ccccc2)n1
-13%,O=[N+]([O-])c1ccc(N/N=C/c2cccnc2)cc1
-4%,O=C(/C=C(\O)c1ccccc1)c1ccccc1O
-5%,CCc1ccc(CNC(=O)CN2C(=O)COc3ccccc32)cc1
-11%,CC(Nc1ccc(N2CCOCC2)cc1)C(=O)N1c2ccccc2CC1C (stereo not given)
-13%,O=C(Cn1cc([N+](=O)[O-])cn1)NCc1cc2ccccc2[nH]1
6%,Cc1noc(C)c1COc1cccc(C(=O)Nc2ccccc2)c1
-6%,Cc1cc(-c2ccc(/C=N/n3cnnc3)o2)ccc1Cl
-24%,COc1ccc(C(=Cc2ccccc2[N+](=O)[O-])C(=O)O)cc1
-1%,CC(C)NC(=S)Nc1ccc(Oc2ccccc2)cc1
?,CCN(CC)S(=O)(=O)c1ccc(O)c(NC(=O)COc2ccc(S(=O)(=O)N3CCOCC3)cc2)c1
0%,O=C(Nc1ccc(Cl)cn1)c1cccc2c(Br)cccc12
-18%,COc1ccc2c(c1OC)C(=O)N1C2SC[C@H]1C(=O)NC1CC1 (stereo not given in full)
0%,CC1CCCC(NC(=O)COC(=O)Cc2ccsc2)C1C (stereo not given)
-1%,O=[N+]([O-])c1ccc(Oc2ccc(F)cc2)c2ccncc12
-14%,CC1(c2ccccc2)CCC(=O)NC1 (stereo not given)
-6%,CN(C)Cc1c(O)ccc2c(-c3ccccc3)cc(=O)oc12
-7%,CC[C@@]1(C(=O)OC)N[C@H](CN(C)C(=O)Nc2ccc(Cl)cc2)[C@@H]2C(=O)N(Cc3ccccc3)C(=O)[C@@H]21
-12%,COc1ccc(F)c(CN2CCCC(CO)(Cc3cccc(Cl)c3)C2)c1 (stereo not given)
11%,Cc1ccc(NC(=S)/C(=C(\[O-])c2ccc(F)cc2)[n+]2ccccc2)cc1
-10%,COc1ccc(-n2ncc3c2CC(C)(C)CC3NC(=O)c2ccoc2C)cc1 (stereo not given)
-15%,Cc1ccc(C2c3[nH]c4ccccc4c3C[C@H]3C(=O)N(c4ccccc4C(=O)N4CCC[C@@H]4C(=O)O)C(=O)N23)cc1 (stereo not given in full)
9%,Nc1ncnc2c1cnn2C1CCCCC1
-11%,O=C(COc1ccc(Cl)cc1Cl)N/N=C/CCc1ccccc1
-14%,Cc1nc(-n2nnc(CO)c2CO)nc2c1CCC2
-14%,CC(Nc1ccc2c(c1)OCCO2)C(=O)N1c2ccccc2CC1C (stereo not given)
-7%,CC1CN(C(=O)c2c(Br)cnn2C)CC(C)O1 (stereo not given)
-16%,Cc1c(C)c2ccc(OCC(=O)N3CC[C@@]4(O)CCCC[C@H]4C3)cc2oc1=O
4%,COc1ccc(C(=O)NCC(c2ccc3c(c2)OCO3)N2CCN(C)CC2)cc1 (stereo not given)
-18%,CCC(c1nnnn1C(C)(C)C)N(Cc1ccco1)Cc1cc2cccc(C)c2[nH]c1=O (stereo not given)
-1%,Clc1ccc2[nH]cc(-c3nnnn3-c3ccccc3)c2c1
-2%,O=C(COC(=O)C(O)c1ccccc1)NC12CC3CC(CC(C3)C1)C2 (stereo not given)
-14%,Cc1ccc(N2C(=O)c3n[nH]c(C)c3C2c2ccc(C(C)C)cc2)cc1 (stereo not given)
-5%,Cc1cc(C(=O)OCC(=O)NC2(C#N)CCCCC2)c(C)o1
-3%,Cc1[nH]nc(SCC(=O)NC2CCCCC2)c1[N+](=O)[O-]
-6%,O=C(c1n[nH]c2ccccc12)N1CCN(S(=O)(=O)c2ccccc2)CC1

The listing continues:
VDR inhibitor,mol
2%,Cc1ccc(S(=O)(=O)N2CCOCC2)cc1C(=O)N1CCCCCC1
-2%,Cc1c(NC(=O)CN2C(=O)NC(C)(c3ccc(Cl)cc3)C2=O)c(=O)n(-c2ccccc2)n1C (stereo not given)
-10%,COc1cccc(N(C(=O)c2ccco2)c2nc(-c3sc(NC(=O)c4ccco4)nc3C)cs2)c1
3%,COCc1cc(CNC(=O)C2CCC(=O)N(Cc3cccc(OC)c3)C2)[nH]n1 (stereo not given)
19%,CCC(Sc1ncnc2sc(C)c(C)c12)C(=O)OC (stereo not given)
-21%,O=C(O)c1cc(-c2ccc3c(c2)OCO3)nc2ccc(Br)cc12
-17%,Fc1ccc(OCCCCCn2ccnc2)cc1
-10%,C=CC12C=CC=CN1C(C(=O)OC)=C(C(=O)OC)C(C(=O)OC)=C2C(=O)OC (stereo not given)
25µM*,NS(=O)(=O)c1cccc(NC(=O)c2cccs2)c1
-9%,Cc1ccc(S(=O)(=O)N(C)CC(=O)OCC(=O)c2c(N)n(C)c(=O)n(C)c2=O)cc1
-1%,COC(=O)c1cc(Sc2c(Cl)cccc2Cl)ccn1
-3%,CCn1c(C2CC(=O)N(Cc3ccccc3)C2)nc2ccccc21 (stereo not given)
2%,O=C(CN1CCOCC1)n1c2c(c3ccccc31)CCCC2
3%,CCOc1ccc(NC(=O)c2cnn3c2NC(C)=C(C(=O)Nc2ccc(Cl)cc2)C3c2ccc(OC)c(OC)c2)cc1 (stereo not given)
1%,COC(=O)Nc1nncs1
12%,CC(=O)NCc1cccc(CNC(C)=O)n1
-6%,CC(OC(=O)c1ccc2c(=O)n3c(nc2c1)CCC3)C(N)=O (stereo not given)
1%,CNc1c(-n2cc(C(=O)OC)c(C(=O)OC)c2C(=O)OC)c(=O)n(C)c(=O)n1C
-6%,O=C1OCc2cc(NC(=O)C3COc4ccccc4O3)ccc21 (stereo not given)
16%,Cc1ccc(Sc2c(C(=O)Nc3ccc(F)cc3F)c(C(F)(F)F)nn2C)cc1
4%,CCc1cccc(Oc2nn[nH]n2)c1
8%,CN1C(=O)C(O)(CC(=O)/C=C/C=C/c2ccccc2)c2ccccc21 (stereo not given)
-15%,CCOc1ccc(NC2c3ccccc3C(=O)N2Cc2ccco2)cc1 (stereo not given)
-5%,COc1ccc2c(c1)CCc1c(C(=O)Nc3cc(OC)c(Cl)cc3OC)noc1-2
-9%,O=C(N/N=C/c1c(Cl)cccc1Cl)c1n[nH]c2c1CCCC2
-8%,Cc1cc(C)nc(NC(=O)CSc2ccccn2)n1
2%,CC(C)C[C@@H](CC(=O)N[C@@H](CCC(=O)O)CC(=O)O)NC(=O)[C@@H]1CNCC[C@H]1NC(=O)C[C@@H](NC(=O)C[C@H](CO)NC(=O)[C@@H]1CCCC[C@H]1N)C(C)C
-1%,COc1ccc(CC(=O)O/N=C(\N)Cc2ccc([N+](=O)[O-])cc2)cc1
11%,O=C(Nc1ncc(Cc2ccc(F)cc2)s1)c1ccc2c(c1)CC(c1ccccc1)OC2=O (stereo not given)
-11%,Cc1c(NC(=O)OCc2ccccc2)c(=O)n(-c2ccccc2)n1C
18%,CC1CCCCN1S(=O)(=O)c1ccc2[nH]c(=O)cc(C(=O)NCCc3ccc(Cl)cc3)c2c1 (stereo not given)
0%,O=C(O)c1ccc(-c2cccc([N+](=O)[O-])c2)o1
-14%,CNC(=S)NCC(O)c1ccc([N+](=O)[O-])cc1 (stereo not given)
-13%,CCCNC(=O)c1oc2ccc3c(c2c1C)C=CC(C)(C)O3
-8%,Cc1cccc(C)c1NC(=O)c1ccc2c(c1)N(Cc1cccc(Cl)c1)C(=O)c1ccccc1S2=O (stereo not given)
-6%,CCCCN(C(=O)c1ccc(Br)o1)C1CCS(=O)(=O)C1 (stereo not given)
8%,CCOC(=O)c1ccccc1NC(=O)n1ncc2cc(Cl)ccc21
-12%,N#CCCn1c(=O)c(-c2ccccc2)nc2cnc(N3CCOCC3)nc21
4%,COc1ccc(C(=O)/C=C/c2cn(CC(O)CN3CCc4ccccc43)c3ccccc23)cc1OC (stereo not given)
-29%,COc1cc(OC)c(Cl)cc1N
-17%,CCOC(=O)c1c(C)n(C)c2ccc(OCC(O)CN3CCC(C)CC3)cc12 (stereo not given)
-13%,CCOC(=O)C1=C(O)C(=O)N(c2ccccc2)C1c1cccc([N+](=O)[O-])c1 (stereo not given)
-21%,O=C(C[C@@H]1C/C=C\C[C@H](NC(=O)OCC2c3ccccc3-c3ccccc32)C(=O)O[C@H](c2ccccc2)CNC1=O)NCCO
-27%,Cc1cccc(OCC(=O)NNC(=O)C2CCCCC2C(=O)O)c1 (stereo not given)
-24%,CCOC(=O)c1nn(C23CC4CC(CC(C4)C2)C3)c2c1C(=O)N(c1ccc(C)cc1)C2=O
-1%,O=C(CN1CCN(c2ccccc2O)CC1)NC(c1ccccc1)c1ccccc1
-7%,CCC(=O)OC1=C(C(C)=O)N(Cc2ccccc2)S(=O)(=O)c2ccccc21
-6%,NC(=O)c1ccsc1NC(=O)COC(=O)Cc1cccc2ccccc12
4%,Cc1ccc(C)c(OCCC(=O)OCC(=O)NC(=O)NCc2ccccc2)c1
3%,O=C(NNC(=O)c1c(F)cccc1F)c1ccccc1-n1cccc1

(next part)
VDR inhibitor,mol
11%,Cc1ccc(Sc2nc(C)cc(C)c2S(C)(=O)=O)cc1
?,Cc1nc(CSc2nsc(/C=C/N(C)C)c2C#N)cs1
-14%,CCC1([N+](=O)[O-])COC(c2ccc(C(C)C)cc2)OC1 (stereo not given)
-4%,CC12CCC(=O)N1C(C(=O)OCC(=O)Nc1ccc(Cl)c(Cl)c1)CS2 (stereo not given)
-5%,Fc1cccc(NC(=S)N2CCc3ccccc32)c1
4%,C[n+]1ccccc1/C=C/c1ccc(F)c(F)c1
-3%,O=C(Nc1ccccc1)N1CCSCC1
4%,Cc1ccc(S(=O)(=O)N2CCN(c3cccc(C)c3)CC2)cc1
8%,CCOc1ccc(CCNC(=O)c2cc3sc(Cl)cc3n2C)cc1OCC
9%,Cc1ccc(C)c(NS(=O)(=O)c2cc(Br)cnc2N)c1

As a short view, 19 of the compounds above.
VDR inhibitor,mol
-13%,CCOC(=O)C1=C(O)C(=O)N(c2ccccc2)C1c1cccc([N+](=O)[O-])c1 (stereo not given)
-21%,O=C(C[C@@H]1C/C=C\C[C@H](NC(=O)OCC2c3ccccc3-c3ccccc32)C(=O)O[C@H](c2ccccc2)CNC1=O)NCCO
-27%,Cc1cccc(OCC(=O)NNC(=O)C2CCCCC2C(=O)O)c1 (stereo not given)
-24%,CCOC(=O)c1nn(C23CC4CC(CC(C4)C2)C3)c2c1C(=O)N(c1ccc(C)cc1)C2=O
-1%,O=C(CN1CCN(c2ccccc2O)CC1)NC(c1ccccc1)c1ccccc1
-7%,CCC(=O)OC1=C(C(C)=O)N(Cc2ccccc2)S(=O)(=O)c2ccccc21
-6%,NC(=O)c1ccsc1NC(=O)COC(=O)Cc1cccc2ccccc12
4%,Cc1ccc(C)c(OCCC(=O)OCC(=O)NC(=O)NCc2ccccc2)c1
3%,O=C(NNC(=O)c1c(F)cccc1F)c1ccccc1-n1cccc1
11%,Cc1ccc(Sc2nc(C)cc(C)c2S(C)(=O)=O)cc1
?,Cc1nc(CSc2nsc(/C=C/N(C)C)c2C#N)cs1
-14%,CCC1([N+](=O)[O-])COC(c2ccc(C(C)C)cc2)OC1 (stereo not given)
-4%,CC12CCC(=O)N1C(C(=O)OCC(=O)Nc1ccc(Cl)c(Cl)c1)CS2 (stereo not given)
-5%,Fc1cccc(NC(=S)N2CCc3ccccc32)c1
4%,C[n+]1ccccc1/C=C/c1ccc(F)c(F)c1
-3%,O=C(Nc1ccccc1)N1CCSCC1
4%,Cc1ccc(S(=O)(=O)N2CCN(c3cccc(C)c3)CC2)cc1
8%,CCOc1ccc(CCNC(=O)c2cc3sc(Cl)cc3n2C)cc1OCC
9%,Cc1ccc(C)c(NS(=O)(=O)c2cc(Br)cnc2N)c1

(listing goes on)
VDR inhibitor,mol
-5%,O=C(NCc1ccccc1OC(F)(F)F)C1CCC(=O)N(Cc2cccc(F)c2)C1 (stereo not given)
79µM*,O=C(NC1CC1)c1ccc(NC(=O)C2CCC2)cc1
14%,CCC(C(=O)Nc1cc(-c2cn3cccnc3n2)ccc1C)c1ccccc1 (stereo not given)
-23%,O=C(CSc1nccc(=O)[nH]1)Nc1ccc(S(=O)(=O)N2CCOCC2)cc1
1%,CC(Sc1nnc(C2CC2)n1C1CC1)C(=O)N(C)C1(C#N)CCCCC1 (stereo not given)
45µM*,CCOc1nc2cccc(C(=O)OC(C)OC(=O)OC3CCCCC3)c2n1Cc1ccc(-c2ccccc2-c2nn[nH]n2)cc1 (stereo not given)
?,Cc1cc(C)cc(N2C(=O)CC(Sc3ccccc3C(=O)O)C2=O)c1 (stereo not given)

A portion of the library (hit frequency here may not be typical).
